PrP UTR inh: suppresses PrP 5' UTR mRNA reporter expression; cell-based PrP 5' UTR mRNA reporter, plate reader; inhibition, % (no concentration beside the values); 340,000 compounds, 0.35% hits; AID 488862;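 active means every replicate at 50% or more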;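 further: 0 = median of the neutral control wells; tested in H4 reporter cells; numbers are from one replicate; inactives centre near -14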
Mtb hypoxia rep: Mtb hypoxia fluorescent reporter inhibition; M. tuberculosis hypoxia-regulated fluorescent reporter, fluorescence; 300,000 compounds, 0.1% hits; AID 1159583; fluorescence inhibition, % (concentration not given with the values);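 active means 35 to 45% if threefold the growth effect, above 45% if 1.5-fold the growth effect; inactive means the rest, general growth blockers included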;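 further: wells of about 50 µL received 100 nL stock; 0% = vehicle wells and 100% = reference inhibitor wells; whole bacteria with a GFP reporter of the hypoxia response; strong numbers were not always called active; many hits fall short of the cut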
BJeLR lethal: kills HRASV12-expressing BJeLR cells; 300,000 compounds, 0.17% hits; AID 1554; inhibition, % (test concentration not listed); BJeLR (HRASV12) viability, CellTiter-Glo ATP luminescence, 48 h; reference of the scale not given here;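 active means replicate mean above 50%; inconclusive means above 50% but judged a plate artefact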;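 further: 50 nL library stock added to about 25 µL; numbers are from one replicate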
ugtP null kill: compounds lethal to S. aureus RN4220 ugtP deletion mutant | OD600 growth, 16 h; some inactives read as strong as hits | growth inhibition, % (no concentration beside the values) | 330,000 compounds, 0.54% hits | AID 1259309;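 active means z-score under -3 and OD600 up to 0.15 on both plates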;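 further: plate controls were untreated wells for no effect and antibiotic for full effect; wells of about 80 µL received 100 nL stock; the first replicate is given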
Bead autofluor: flagged as autofluorescent in microsphere protease counterscreen | compound autofluorescence counterscreen, microsphere flow cytometry; stronger effect = higher value | fluorescence intensity (test concentration not listed) | 360,000 compounds, 3.1% hits | AID 624483;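 active means at least 3 SD above the mean of all compounds, about 16000 in these data; inconclusive means too few beads counted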;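 further: 100 nL of 1 mM stock went into each well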
Sa RN4220 lethal: kills Staphylococcus aureus RN4220 | S. aureus RN4220 growth, OD600, 16 h | inhibition, % (concentration not given with the values) | 330,000 compounds, 0.33% hits;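 active means z-score of -3 or lower and OD600 up to 0.18 on both plates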;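 further: plate controls were untreated cells for no effect and reference antibiotic for full effect; stock transfer was 100 nL into about 80 µL; one replicate is shown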
Mtb hypoxia rep growth: further read-out of Mtb hypoxia rep, marked with its call; growth inhibition, %; measured here: M. tuberculosis growth (absorbance);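 0% = vehicle and 100% = reference antibiotic; read after six days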
* hit, by the source's call; ? = inconclusive; . = not tested or not shown; & = joins results of further samples. Rows were taken by chance; overall some 3.9% were active at least once.

canonical_smiles,Mtb hypoxia rep growth,BJeLR lethal,Bead autofluor,PrP UTR inh,Sa RN4220 lethal,ugtP null kill,Mtb hypoxia rep
CCC(C(=O)Nc1cccc(C(F)(F)F)c1)c1ccccc1 (stereo not drawn),-7,-1,3001,-5,4.9,-27,-7
CCCc1cc(=O)[nH]c(SCC(=O)Nc2ccc3ccccc3c2)n1,2,.,8643,-12,2.6,-8,7
CN(CC(=O)Nc1ccc(Cl)c(C(F)(F)F)c1)C(=O)CNC(=O)C1CCCCC1,-2,.,6536,-2,3.5,4,2
CCOC(=O)c1cc(NC(=O)c2ccc(C)cc2)c(=O)oc1-c1ccccc1,6,-2,9555,-5,1.4,-9,7
O=C(NN=Cc1cc(Br)ccc1O)c1cccc(N2CCCC2=O)c1,-2,.,.,.,9.8,-12,9
CC1(CO)COC(c2ccccc2)=N1 (stereo not drawn),6,-7,3234,-21,3.8,-2,10
CC1CN(C(=O)CSc2nnc3c(Cl)cc(Cl)cn23)CC(C)O1 (stereo not drawn),.,8,2863,-10,-2.0,-7,.
CCN(C(=O)c1cc2c(=O)n3ccccc3nc2s1)C1CCCCC1,15,-2,3415,-29,8.3,12,18
Cc1cc(C(=O)CSc2nn3c(=O)c(C(C)(C)C)nnc3s2)c(C)n1-c1ccc(F)cc1,8,2,2887,-18,2.0,-33,-6
Cc1ccc(NC(=O)c2ccc(Cn3cc([N+](=O)[O-])cn3)cc2)c(C)c1,-2,2,2077,-19,5.6,4,2
CC(=O)N1N=C(c2ccncc2)OC1(Cc1ccccc1)Cc1ccccc1,4,8,4377,-22,2.3,13,2
COc1ccc(N2CCN(S(=O)(=O)c3c(C)noc3/C=C/N(C)C)CC2)cc1,3,3,5615,-20,-1.3,-1,-2
C(=N\Nc1ncnc2nc[nH]c12)/c1cccs1,.,2,3359,-52,.,.,.
CCOC(=O)c1csc(NC(=O)c2cc(-c3ccccn3)nc3ccccc23)n1,0,.,3986,-5,2.4,-6,2
O=C(CN1CCN(c2ccccc2O)CC1)NC(=O)NCc1ccco1,4,-19,2032,-7,2.8,-7,3
CCOC(=O)c1c(NC(=O)CN2C(=O)NC3(CCCCCC3)C2=O)sc(C)c1-c1ccc(C)cc1,.,19,2564,-17,.,.,.
COc1cc2c(cc1OC)CN(c1ccc([N+](=O)[O-])c(C(F)(F)F)c1)CC2,5,8,2766,-22,11,-17,8
Cc1c(O)ccc2cc(S(=O)(=O)c3ccccc3)c(=O)oc12,4,3,4297,-28,8.5,17,-7
CCOc1[nH]n(-c2ccccc2)c(=O)c1C=Nc1ccc(C(=O)OC)cc1,-10,2,2502,-7,1.5,4,-12
Cc1ccc([N+](=O)[O-])cc1,15,.,5557,-8,0.8,7,10
CCn1c(-c2ccccc2Cl)nn(CC(=O)Nc2cc(Cl)ccc2Cl)c1=S,6,-4,2371,-8,2.3,-1,3
CC1CC(C)CN(C(=O)C2CCN(S(=O)(=O)N3CCC4(CC3)OCCO4)CC2)C1 (stereo not drawn),1,2,5342,-12,-1.4,2,2
COc1ccccc1NC(=O)COC(=O)c1oc2ccccc2c1C,-5,0,?,-7,3.2,-16,7
Cc1cccc(CN2CCN(CC(C)C)C(CCO)C2)n1 (stereo not drawn),-3,2,3616,-1,0.7,8,0
CC1=C(CC(=O)c2ccccc2)C(=O)c2ccccc2C1=O,7,0,18823*,-38,20,15,-6
CCCC[n+]1ccn(C2=C([O-])c3ccccc3C(=O)/C2=N\S(=O)(=O)c2ccc(Br)cc2)c1,12,17,1917,-12,18,45,2
NC(=S)n1[nH]c(-c2ccccc2)c(N=Nc2ccccc2C(=O)N2CCOCC2)c1=O,4,2,4463,-69,4.4,-5,5
CCOc1ccccc1C(C(=O)NC1CCCC1)N(Cc1ccco1)C(=O)CNC(=O)c1ccco1 (stereo not drawn),3,14,3989,1,-0.8,1,13
COc1ccc(CNc2nc3c(c(=O)n(Cc4ccc(Cl)cc4)c(=O)n3C)n2C)cc1,2,10,16319*,1,-9.4,1,-1
OCC[C@@H]1C[C@@H](O)[C@H](O)[C@]2(Cc3ccccc3CO2)O1,.,-5,4061,-9,.,.,.
COC(=O)NCC(c1cccnc1)N1CCOCC1 (stereo not drawn),1,-6,6341,-8,2.7,-1,3
CCCCN1C(=O)c2ccc(C(=O)NC3(C)CCS(=O)(=O)C3)cc2C1=O (stereo not drawn),5,.,3711,-16,4.1,4,10
CCc1ccc(/C=N/NC(=O)c2cc(C3CC3)nc3ccc(Br)cc23)s1,.,27,3066,-20,.,.,.
O=C(COC(=O)c1ccccc1-c1nc2ccccc2s1)Nc1ccccc1C(F)(F)F,16,-25,2036,-7,2.6,-1,0
NC(=O)c1sc2nc(N3CCOCC3)c3c(c2c1N)CCCC3,7,-3,?,-7,-0.6,8,6
O=c1[nH]c2cccnc2n1Cc1ccco1,21,2,21423*,-20,2.7,-5,-2
ClC1C(Cl)C(Cl)C(Cl)C(Cl)C1Cl (stereo not drawn),-5,.,5644&5478,-18&-19,38,23,2
Cc1ccc(SCC(=O)OCC(=O)NCCc2ccccc2)cc1C,3,.,3903,-8,1.7,3,5
COc1ccc(C2N(c3ccccc3)CCN2c2ccccc2)cc1O,10,6,4776,-12,2.8,2,1
COc1ccc(C(C)=NNC(=O)c2ccc(CSc3nncn3C)cc2)cc1,6,.,.,.,3.2,3,-5

3 entries from above, set out differently.
> CC1CC(C)CN(C(=O)C2CCN(S(=O)(=O)N3CCC4(CC3)OCCO4)CC2)C1 (stereo not drawn)
  Mtb hypoxia rep growth = 1
  BJeLR lethal = 2
  Bead autofluor = 5342
  PrP UTR inh = -12
  Sa RN4220 lethal = -1.4
  ugtP null kill = 2
  Mtb hypoxia rep = 2
> CCOc1ccccc1C(C(=O)NC1CCCC1)N(Cc1ccco1)C(=O)CNC(=O)c1ccco1 (stereo not drawn)
  Mtb hypoxia rep growth = 3
  BJeLR lethal = 14
  Bead autofluor = 3989
  PrP UTR inh = 1
  Sa RN4220 lethal = -0.8
  ugtP null kill = 1
  Mtb hypoxia rep = 13
> COc1ccccc1NC(=O)COC(=O)c1oc2ccccc2c1C
  Mtb hypoxia rep growth = -5
  BJeLR lethal = 0
  Bead autofluor = ?
  PrP UTR inh = -7
  Sa RN4220 lethal = 3.2
  ugtP null kill = -16
  Mtb hypoxia rep = 7

Next section:
canonical_smiles,Mtb hypoxia rep growth,BJeLR lethal,Bead autofluor,PrP UTR inh,Sa RN4220 lethal,ugtP null kill,Mtb hypoxia rep
COc1ccc(C2C(C#N)=C(N)N(c3ccccc3)C3=C2C(=O)CCC3)cc1Cn1cc([N+](=O)[O-])cn1 (stereo not drawn),.,-4,3581,-15,-6.8,-8,.
Cc1nn(CC(=O)N2CCC(C)CC2)c(=O)c2cccn12,-5,10,4157,-25,-1.1,-4,-15
C=CCN1C(=O)CSc2ccc(C(=O)NCc3ccco3)cc21,8,-4,10585,-13,3.3,22,9
O=[N+]([O-])c1cc(S(=O)(=O)N2CCCC2)ccc1OCc1ccccc1,14,-5,3971,-21,-2.3,9,4
COc1ccc(Nc2nc(N3CCOCC3)nc(N3CCOCC3)n2)c(OC)c1,-1,-3,3182,-6,3.2,4,-2
O=C1N(c2ccccc2)C[C@@H]2C[C@@H](c3cc4ccccc4o3)N3CCC[C@@]123,5,51*,3932,59*,-5.5,19,6
O=c1oc2ccccc2nc1/C=C(\O)c1ccc(Br)cc1,.,-1,3340,.,5.3,-3,.
CCCCCCSc1ccc(-c2nc3cc(C)ccn3c2NC2CCCCC2)cc1,6,.,5619&4946,-11,1.7,7,1
CCOCCCNC(=O)C(NC(=O)c1ccc(=O)[nH]c1)c1ccc(C)cc1 (stereo not drawn),-7,-8,5088,-25,1.7,14,5
O=C(N/N=C\c1ccc(Cl)cc1)C1=NOC2COC3(CCN(c4ccc([N+](=O)[O-])cc4)CC3)OCC12 (stereo not drawn),.,2,3801,-11,.,.,.
O=C1CCN(S(=O)(=O)c2ccccc2)CCN1CCOCc1ccccc1,0,-8,4317,-13,4.2,-3,4
N#CC(C(=O)NC1CC1)c1nc2ccccc2nc1N1CCCC1 (stereo not drawn),.,.,3956,4,6.7,-6,.
O=C(NNS(=O)(=O)c1ccc(F)cc1)C1CCN(S(=O)(=O)c2ccccc2)CC1,-4,1,3395,-15,1.1,2,-3
CCOCCCNC(=O)c1ccccc1NC(=O)C1=C(C)OCCS1,3,0,2771,-13,7.1,5,0
CCN1CCN(CC(O)COC(C)C)CC1 (stereo not drawn),-4,-3,20191*,-16,0.9,8,-2
COc1ccc(C)cc1S(=O)(=O)N1CCN(C)CC1c1ccccc1 (stereo not drawn),-7,.,2894,-6,10,14,-3
O=C(/C=C/c1ccccc1)NC(=S)N1C[C@H]2C[C@H](C1)c1cccc(=O)n1C2,.,-4,3950,-27,-0.4,9,.
CCc1cccc(NS(=O)(=O)c2csc(C(N)=O)c2)c1,5,6,3446,-2,4.7,6,10
COc1ccc(C(=O)/C=C(\C)NCc2ccc3c(c2)OCO3)cc1,4,-9,4397,-3,-7.2,4,5
COc1ccccc1N1CCN(C(=O)CCCCn2c(=O)[nH]c3ccsc3c2=O)CC1,-6,.,5574,3,-13,-4,-6
OCC1(Cc2ccc(F)cc2)CCCN(CCc2ccccc2)C1 (stereo not drawn),11,2,4865,-6,2.6,8,-1
CCNC(=O)c1ccccc1SCC(=O)Nc1ccc(F)cc1,3,-4,3272,-14,2.9,1,0
CCC(=O)Nc1cccc(C2=NOC3(C2)CC(C(N)=O)N(C(=O)c2ccc(Cl)cc2)C3)c1 (stereo not drawn),10,.,.,.,2.6,2,8
COc1cccc(/C=N/Nc2cc(C)nc(-c3ccccc3O)n2)c1O,.,9,3315,10,.,.,.
O=C(c1[nH]ncc1[N+](=O)[O-])N1CCOCC1,-5,-2,?,-2,4.0,10,1
Nc1cc(S(=O)(=O)Nc2cc(Cl)ccc2Cl)ccc1N1CCOCC1,0,-7,4322,-18,59,41,10
O=C(CN1CCN(Cc2ccccc2Cl)C1=O)NCc1cccnc1,5,5,3975,-16,3.0,-6,7
O=C(CCCCCn1c(=O)[nH]c2ccsc2c1=O)NCc1ccc(F)cc1,1,-10,3861,-16,0.2,5,1
CCCNC(=O)c1nc(C)c(C)nc1C(=O)Nc1cccc(Cl)c1,7,6,8789,-14,7.0,15,14
CN(C)C=Nc1ncc(C(=O)c2ccc(Cl)cc2Cl)s1,1,.,.,.,5.8,2,6
COc1cccc(NC(=O)NC2CCN(Cc3nnnn3Cc3ccc4c(c3)OCO4)CC2)c1,-4,-2,5283,-5,5.0,4,9
COc1ccc(CC(=O)Nc2nc3ccccc3s2)cc1S(=O)(=O)N1CCOCC1,8,6,4659,-12,15,-4,-4
CCOC(=O)c1[nH]c(C)c(C(=O)Nc2ccc(F)cc2)c1C,.,-2,5510,-8,1.2,1,.
N#Cc1ccc(-c2cn3c(n2)SCC3)cc1,-1,-1,3856,-31,2.0,1,5
CC(=O)NCCNC(=O)c1ccc(Sc2ccccc2)c([N+](=O)[O-])c1,8,0,4376,1,1.7,-1,17
Cc1onc(-c2ccccc2)c1C(=O)NNC(=S)NC(=O)c1ccc(Br)cc1,-3,6,10404,-18,81,80,11
CCCC(=O)Nc1c(-c2cccc(C)c2)c(=O)c2ccccc2n1C,-5,-9,3768,-21,14,18,-1
CC1(C)C2CCC1(CS(=O)(=O)N1CCCC1C(=O)O)C(=O)C2 (stereo not drawn),12,.,3004,-11,2.9,0,7
COc1ccccc1N=c1sc2ccccc2n1C,4,-5,8773,-21,-2.0,11,3
Cc1ccsc1/C=C/C(=O)O,4,-2,4715,-29,5.8,4,7
C=CC1c2ccccc2N(S(=O)(=O)c2ccc(C)cc2)C(c2ccccc2C(F)(F)F)C1(C#N)C#N (stereo not drawn),10,.,.,.,5.7,-19,6
COc1ccc(NS(=O)(=O)c2ccc(C)cc2)c([N+](=O)[O-])c1,7,2,4987,-8,13,7,11
CCC(=O)Nc1ccccc1C(=O)OCC(=O)c1cccc2ccccc12,-3,-5,10187,-35,4.7,-6,9
C=CCn1c(=N)n(CC(=O)c2ccc(Br)cc2)c2ccccc21,4,-16,3775,-17,0.9,-1,4
